Bioassay records: PubChem, Vanderbilt University
GIRK2 activ = activators of human GIRK2 potassium channels; P48051; HEK293-GIRK2 thallium flux, Thallos fluorescence; calls only for hits at 25 µM; 63,000 tested, 0.05% active; AID 1259325;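 active = among the strongest 0.2% of first-round signals and kept after retests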;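 also: first round at about 10 µM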
Target sequence (P48051 whole entry, looked up): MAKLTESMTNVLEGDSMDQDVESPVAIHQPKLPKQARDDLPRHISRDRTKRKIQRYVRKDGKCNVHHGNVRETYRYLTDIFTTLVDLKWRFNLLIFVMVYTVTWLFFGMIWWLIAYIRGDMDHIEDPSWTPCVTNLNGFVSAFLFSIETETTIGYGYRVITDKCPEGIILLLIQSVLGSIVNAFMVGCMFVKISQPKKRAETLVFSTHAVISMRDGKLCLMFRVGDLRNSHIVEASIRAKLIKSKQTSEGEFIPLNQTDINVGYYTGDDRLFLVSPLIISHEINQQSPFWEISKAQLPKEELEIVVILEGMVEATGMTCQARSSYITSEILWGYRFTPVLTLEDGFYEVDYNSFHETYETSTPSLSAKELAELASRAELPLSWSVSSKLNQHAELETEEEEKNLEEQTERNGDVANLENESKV
Calls only; i = inactive.

GIRK2 activ	SMILES
i	CCCCOc1ccc(-c2cc3c(=O)n(CC(=O)Nc4cccc(C)c4C)ccn3n2)cc1
i	Cc1cc(C(=O)Nc2nc(C(=O)NCc3cccs3)co2)no1
i	O=C(CN1C(=O)CCC1=O)N1CCC(c2cccs2)CC1
i	C/C(=C\c1ccccc1)C(=O)NC1CCN(c2ccc(-c3nc(C)no3)cn2)C1 (centres undefined)
i	COc1cccc(NC(=O)Cn2cc(S(=O)(=O)c3ccc(C)cc3)c(=O)c3cc(Cl)ccc32)c1
i	O=C(COc1ccccc1)N1CCN(c2ncnc3c2nnn3-c2ccccc2)CC1
i	CC1Oc2ccccc2OC1C(=O)NCCCn1ncccc1=O (centres undefined)
i	COc1ccc(-c2cc(N3CCN(C(=O)c4cc5cccc(OC)c5o4)CC3)ncn2)cc1
i	CC1(C)OCC2(CO1)CN(C(=O)C(C)(C)C)C2
i	COc1ccc2sc(N3CC(C(=O)Nc4ccc(Br)cc4F)C3)nc2c1
i	CN(C)S(=O)(=O)N1CCC(S(=O)(=O)c2nncn2C)CC1
i	O=C(NCCCn1ccnc1)C(=O)NC1CC1
i	CC#CCC(C)C(=O)/C=C/[C@H]1C(O)CC2C/C(=C\CCCC(=O)O)CC21 (some centres undefined)
i	COc1cc(N2CCN(C(C)C)CC2)ccc1Nc1nc(Nc2ccc(F)cc2C(=O)NC[C@@H](O)CO)c2cc[nH]c2n1
i	C#CCOCC1CCCN(C(=O)c2ccc(OC(F)(F)F)cc2)C1 (centres undefined)
i	COC(=O)c1ccc(Oc2coc3cc(OC(=O)c4cccc([N+](=O)[O-])c4)ccc3c2=O)cc1
i	COc1cccc(NC(=O)Cn2c(N3CCCCC3)nc(C)cc2=O)c1
i	COC1(CNC(=O)C2CCN(S(C)(=O)=O)CC2)CCSC1 (centres undefined)
i	CCOc1ccc(OCC)c(S(=O)(=O)N(C)C2CCCCC2)c1
i	Cc1ccc(-c2nnc(CN3CCCc4ccccc43)o2)cc1
i	O=C(c1cc(-c2ccc3c(c2)OCO3)n[nH]1)N1CCC(Oc2ccc(Cl)cn2)CC1
i	CCOC(=O)C1CCc2sc(NC(=O)c3oc4cc(OC)ccc4c3C)nc21 (centres undefined)
i	CCOc1ccccc1C(=O)NCCc1ccoc1
i	Cc1noc(C)c1CN1CCN(C(=O)CCS(=O)(=O)c2ccccc2)CC1
i	O=C1CN(C(=O)c2ccc3nsnc3c2)c2ccccc2N1

The final four compounds of the part above lead into the next.
GIRK2 activ	SMILES
i	CCOC(=O)C1CCc2sc(NC(=O)c3oc4cc(OC)ccc4c3C)nc21 (centres undefined)
i	CCOc1ccccc1C(=O)NCCc1ccoc1
i	Cc1noc(C)c1CN1CCN(C(=O)CCS(=O)(=O)c2ccccc2)CC1
i	O=C1CN(C(=O)c2ccc3nsnc3c2)c2ccccc2N1
i	CC(=O)Nc1cnc(N(C)C)nc1
i	O=C(NCCOc1ccc(-c2ccc(F)cc2)nn1)c1ccc(S(=O)(=O)N2CCCCC2)cc1
i	O=C(c1ccccc1F)N1CC(c2nc(-c3cccc(C(F)(F)F)c3)no2)C1
i	Cc1ccc(-c2csc3c(=O)[nH]c(N4CCCC(C(=O)NCC(N)=O)C4)nc23)cc1 (centres undefined)
i	CN(C)C(CNC(=O)C(=O)NCc1ccccc1Cl)c1cn(C)c2ccccc12 (centres undefined)
i	COCCn1c(-c2ccc(Cl)cc2)nc2oc3cc(OC)ccc3c(=O)c2c1=O
i	Cc1ccc(N2CC(O)Cn3c2nc2c3c(=O)[nH]c(=O)n2C)cc1 (centres undefined)
i	O=C(CCc1csc(NC(=O)c2cccs2)n1)Nc1nccs1
i	Cc1ccc(C#N)c(SCc2ccc(CSc3nc(C)ccc3C#N)cc2)n1
i	Cc1cc(C)c2nc(NC(=O)CN3CCCCCC3)sc2c1
i	COc1cccc2cc(C(=O)N3CCN(c4cccc(Cl)c4)CC3)oc12
i	O=C(NCCCc1ccccc1)NCC1CCN(S(=O)(=O)c2cccnc2)CC1
i	Cc1cccc(N2CCN(S(=O)(=O)c3ccsc3C(=O)Nc3ccc4c(c3)OCO4)CC2)c1
i	Cc1ccc(NS(=O)(=O)c2n[nH]c(C)c2C(=O)NCC(C)c2ccccc2)cc1 (centres undefined)
i	CC(C)CNC(=O)c1sc2ncccc2c1-n1cccc1
i	O=C(OCc1nc2ccccc2s1)c1cccs1
i	COC1(CNC(=O)C(=O)NC(C)c2ccccc2)CCSC1 (centres undefined)
i	CS(=O)(=O)C1CCN(C(=O)c2ccc(OC(F)(F)F)cc2)C1 (centres undefined)
i	C/C=C1\C(O[C@@H]2O[C@H](CO)[C@@H](O)[C@H](O)[C@H]2O)OC=C(C(=O)OC)C1CC(=O)OC[C@@H]1[C@H](C)[C@@H](OC(=O)CC2C(C(=O)OC)=COC(O[C@@H]3O[C@H](CO)[C@@H](O)[C@H](O)[C@H]3O)/C2=C\C)C[C@H]1C(CO)CO (some centres undefined)
i	COc1ccc(-c2csc3c(=O)n(CC(=O)Nc4ccccc4C)cnc23)cc1
i	NS(=O)(=O)c1cc2c(cc1C(F)(F)F)NCNS2(=O)=O
i	Cc1cc2ncn(CC3CCN(C(=O)c4cccc(N(C)C)c4)CC3)c2cc1C
i	CCC(C)c1ccc(Cn2c(CO)nc3ccccc32)cc1 (centres undefined)
i	Cc1nn(CCC(=O)N2CCN(S(=O)(=O)c3ccc(Cl)cc3)CC2)c(C)c1Br
i	COc1ccc(CN2CCc3nc(SCC(=O)Nc4cccc(Cl)c4C)[nH]c(=O)c3C2)cc1

Filtered by structure: those above containing a thiophene ring, fused or not.
GIRK2 activ	SMILES
i	Cc1cc(C(=O)Nc2nc(C(=O)NCc3cccs3)co2)no1
i	O=C(CN1C(=O)CCC1=O)N1CCC(c2cccs2)CC1
i	Cc1ccc(-c2csc3c(=O)[nH]c(N4CCCC(C(=O)NCC(N)=O)C4)nc23)cc1 (centres undefined)
i	O=C(CCc1csc(NC(=O)c2cccs2)n1)Nc1nccs1
i	Cc1cccc(N2CCN(S(=O)(=O)c3ccsc3C(=O)Nc3ccc4c(c3)OCO4)CC2)c1
i	CC(C)CNC(=O)c1sc2ncccc2c1-n1cccc1
i	O=C(OCc1nc2ccccc2s1)c1cccs1
i	COc1ccc(-c2csc3c(=O)n(CC(=O)Nc4ccccc4C)cnc23)cc1

The list goes on.
GIRK2 activ	SMILES
i	CCOC(=O)c1[nH]cnc1C(=O)Nc1ccc(C)cc1
i	COc1ccc(N(C)c2nnc(-c3ccc(NC(=O)C(=O)NCCCO)cc3)s2)cc1
i	N[C@@H](Cc1ccc(O)c([N+](=O)[O-])c1)C(=O)O
i	CCOC(=O)c1c(S(=O)(=O)N2CCN(c3cccc(OC)c3)CC2)n[nH]c1C
i	CSc1ccc(CNC(=O)c2nnn(-c3ccc(Cl)cc3)c2-c2cccnc2)cc1
i	Cc1ccc2[nH]c3c(=O)n(CC(=O)N4CCN(c5cccc(C(F)(F)F)c5)CC4)cnc3c2c1
i	O=C(Cc1ccc(Cl)cc1)Nc1ccc(SCC(=O)N2CCCC2)nn1
i	CCCCn1c(-c2ccc(OC)cc2)nc2oc3ccc(Cl)cc3c(=O)c2c1=O
i	COc1cccc(N2CC(C)Cn3c2nc2c3c(=O)n(CC(=O)O)c(=O)n2C)c1 (centres undefined)
i	Cc1cc(NC(=O)C(=O)NCCC2=CCCCC2)c2ccccc2n1
i	COc1ccc(Cl)cc1NC(=O)CSc1nccc(N2CCCC2)n1
i	COc1cccc(S(=O)(=O)NCc2ccc(C(=O)N3CCN(Cc4ccccc4)CC3)cc2)c1
i	COc1ccc2cc(S(=O)(=O)N3CCCCC3)ccc2c1
i	Cc1noc(CNC(=O)C2CCN(S(=O)(=O)c3ccccc3F)CC2)n1
i	Cc1ccc(S(=O)(=O)N2CCCC(c3nnc(-c4ccc5c(c4)OCO5)o3)C2)c(C)c1 (centres undefined)
i	Cc1cc(C)n(-c2nc(CCNC(=O)c3ccc(=O)[nH]c3)cs2)n1
i	COC(=O)C1=CO[C@@H](O[C@@H]2O[C@H](CO)[C@@H](O)[C@H](O)[C@H]2O)[C@@H]2[C@@](C)(O)[C@@H](OC(=O)/C=C/c3ccc(O)cc3)C[C@]12O
i	NC(=O)c1c(NC(=O)CSc2ncn[nH]2)sc2c1CCC2
i	O=c1[nH]c2nc(N3CCc4ccccc4C3)ncc2c(=O)n1-c1ccccc1
i	COc1ccc(NC(=O)Cc2csc(SCc3ccncc3)n2)cc1OC
i	COCCCNC(=O)c1c(N)n(/N=C\c2ccco2)c2nc3ccccc3nc12
i	O=C1/C(=C/C=C/c2ccccc2)Oc2cc(OC(=O)N3CCOCC3)ccc21
i	CCOc1ccc(-n2c(N3CCOCC3)nc3cc(C(=O)NCCc4ccccc4)ccc3c2=O)cc1
i	COc1ccc(CNC(=O)Cn2cc(-c3nc(-c4ccc(C)cc4)no3)ccc2=O)cc1
i	CCOc1ccccc1CNC(=O)c1ccc(-n2nc(C)c(C)c2C)nc1
i	Cc1nnsc1C(=O)N1CCN(CC(O)c2ccco2)CC1 (centres undefined)
i	Cc1nc(-c2cccs2)sc1CNS(=O)(=O)c1c(C)noc1C
i	COc1ccc(CC(=O)OC2CN(c3nc4c(OC)cccc4s3)C2)cc1
i	COc1ccccc1CCNC(=O)C1CN(C(=O)COc2ccccc2F)C1
i	COc1ccc(-c2ccc(=O)n(CCNS(=O)(=O)c3ccc(OC(F)(F)F)cc3)n2)cc1
i	CC1CCCCN1CC(O)COc1ccccc1-c1ccccc1 (centres undefined)
i	O=C(NCCc1ccsc1)c1cccc(-n2cnnn2)c1
i	CC(O)(CNC(=O)CCSc1ccccc1)c1ccco1 (centres undefined)
i	CCCCc1ccc(-n2c(C)c(C)n3c4c(=O)n(CCOCC)c(=O)n(C)c4nc23)cc1
i	Cc1cc2oc(=O)cc(-c3oc4ccccc4c3N)c2cc1C
i	COc1ccccc1OCC#CCNC(=O)C1CCN(C(C)=O)CC1
i	COc1ccc(-c2coc3cc(OC(=O)C(C)(C)C)ccc3c2=O)cc1OC
i	COc1ccc(S(=O)(=O)N2CCCc3cc(NS(=O)(=O)c4ccc(Cl)cc4)ccc32)cc1
i	CN(C)C(CNC(=O)Cn1c(=O)oc2ccccc21)c1cn(C)c2ccccc12 (centres undefined)
i	O=C1/C(=C/c2ccncc2)Oc2c1ccc1c2CN(CCc2ccc(F)cc2)CO1
i	COCC(=O)NCc1sc(-c2cccs2)nc1C
i	COc1ccc(NC(=O)CSc2nccc(N3CCCC3)n2)cc1Cl
i	COc1ccccc1CNC(=O)C1CCN(c2ccc(=O)n(C)n2)CC1
i	COC(=O)c1ccc(S(=O)(=O)N2CCN(c3c(C)nn(C4CCS(=O)(=O)C4)c3C)CC2)cc1 (centres undefined)
i	O=C(C(=O)N1CCN(Cc2nnnn2-c2ccc(Cl)cc2)CC1)c1c[nH]c2ccccc12
i	O=C(c1ccccc1F)N1CCN(C(=O)C2CC2c2ccc3c(c2)OCO3)CC1 (centres undefined)
i	COc1nn(C)cc1C(=O)NCC(=O)Nc1cccc(NS(C)(=O)=O)c1
i	N#CCCOP(=O)(O)O
i	COCCCn1c(C(=O)Nc2ccc(F)c(Cl)c2)cc2c(=O)n(C)c(=O)n(C)c21
i	Cc1nc(C)c(C(=O)C2=C(O)C(=O)N(CCCN(C)C)C2c2cccc([N+](=O)[O-])c2)s1 (centres undefined)

Sorted by length of the SMILES (descending): six of the compounds above
GIRK2 activ	SMILES
i	COC(=O)c1ccc(S(=O)(=O)N2CCN(c3c(C)nn(C4CCS(=O)(=O)C4)c3C)CC2)cc1 (centres undefined)
i	COc1ccc(S(=O)(=O)N2CCCc3cc(NS(=O)(=O)c4ccc(Cl)cc4)ccc32)cc1
i	O=C1/C(=C/c2ccncc2)Oc2c1ccc1c2CN(CCc2ccc(F)cc2)CO1
i	COc1nn(C)cc1C(=O)NCC(=O)Nc1cccc(NS(C)(=O)=O)c1
i	COc1ccccc1CNC(=O)C1CCN(c2ccc(=O)n(C)n2)CC1
i	O=C(NCCc1ccsc1)c1cccc(-n2cnnn2)c1

(continued)
GIRK2 activ	SMILES
i	COCc1cc(=O)n(CC(=O)Nc2ccc(F)cc2C)c(N)n1
i	CCOC(=O)c1cn(Cc2c(F)cccc2Cl)nc1S(=O)(=O)N1CCSCC1
i	Cc1ccc(Oc2nccn3c(=O)n(CC(=O)Nc4ccc(Cl)cc4F)nc23)cc1
i	COc1ccc(Cl)cc1NC(=O)CN1CCC(c2nc(-c3cccc(C)c3)no2)CC1
i	N#Cc1nc(-c2ccc(S(=O)(=O)N3CCCCC3)cc2)oc1N1CCCCC1
i	Cc1ccc(S(=O)(=O)c2c(C)nn(C(C)(C)C)c2OC(=O)c2cccc(C)c2)cc1
i	CN(C)S(=O)(=O)N1CCN(Cc2nc3ccccc3n2C)CC1
i	COc1ccc(C)cc1NC(=O)CSc1cc(NCc2ccc(Cl)cc2)ncn1
i	COc1ccc2c(=O)c3c(=O)n(Cc4ccccc4)c(-c4ccco4)nc3oc2c1
i	COc1cccc(C(=O)NCCc2nc(C3CC3)cc(C(F)(F)F)n2)c1OC
i	COc1ccc(CC(=O)Nc2ccc(-c3nc(C)no3)cc2)cc1OC
i	CCOc1ccc(-c2cc3c(=O)n(CC(=O)Nc4ccc(F)c(Cl)c4)ccn3n2)cc1
i	O=C(NCC1(c2cccs2)CCCCC1)C1COc2ccccc2O1 (centres undefined)
i	C=C[C@H]1[C@H](O[C@@H]2O[C@H](CO[C@@H]3OC[C@](O)(CO)[C@H]3O)[C@@H](O)[C@H](O)[C@H]2O)OC=C2C(=O)OCC[C@H]21
i	O=C(Nc1ccc(-c2cnc3n2CCC3)cc1)C1COc2ccccc2O1 (centres undefined)
i	COc1cccc(C(=O)N2CC(Oc3nc4c(F)cccc4s3)C2)c1OC
i	Cc1cc(N2CCN(S(=O)(=O)CCOc3ccc(F)cc3)CC2)ncn1
i	CCC(C)NC(=O)c1ccc2c(=O)n(C)c3nn(CC(=O)Nc4ccccc4)c(=O)n3c2c1 (centres undefined)
i	C1=NN(c2ccccc2)C2c3ccccc3OCC12 (centres undefined)
i	O=C(CCc1nc2sc3c(c2c(=O)[nH]1)CCCCC3)N1CCC(Cc2ccccc2)CC1
i	CCCCC[C@H](O)/C=C/[C@H]1[C@H](O)CC(=O)[C@@H]1C/C=C\CCCC(=O)NC(CO)CO

Not all compounds are listed; the hit share may differ from the screen's.
